From PubChem BioAssay
NPYLR7 ag – activates Aedes aegypti NPYLR7 receptor. HEK293T NPYLR7/Galpha15, GCaMP6s calcium fluorescence. activation, % at 10 µM. hit rate 0.15% among 270,000. AID 1259423; in the data active means activation above about 40%;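 further: 0% = vehicle and 100% = reference agonist at the receptor; some compounds past the cut are filed as inactive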
NPYLR7 ag max-min – recorded beside NPYLR7 ag, whose call it bears; activation, %; measured here: Max-Min RFU normalised activation; some inactives read as strong as hits;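 span of the calcium signal over five minutes; 0% = vehicle and 100% = native peptide agonist; compound fluorescence can raise it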
Starred values were filed as active, the others as inactive; & = joins results of further samples.

SMILES | NPYLR7 ag | NPYLR7 ag max-min
Clc1ccc2c(N3CCCNCC3)ccnc2c1 | 2 | 1
NC(=O)C1CCN(C(=O)c2occc2COc2ccccc2)CC1 | 4 | 4
Cc1[nH]c2c(C)ccc(C)c2c1CC(=O)N1CC[C@H](CO)[C@H](O)C1 | 1&1 | 1&-1
COc1cccc(C(=O)NC(C(=O)N2CCOCC2)C2CCN(C(=O)C3CCCC3)CC2)c1 (stereo not given) | 2 | 8
Cc1cccc(NC(=O)CSc2nc3nc(C)cc(C)c3c(=O)[nH]2)c1 | -6 | -8
O=C(c1ccc(-c2ccc[nH]2)nc1)N1CCC(Oc2cccnc2)CC1 | -8 | -10
CC=CCn1c(=O)c2c(nc3n2CC(C)=NN3CCOCC)n(C)c1=O | 7 | 17
COc1cccc(C(C2Sc3ncnn3C2=O)N2CCCCC2)c1 (stereo not given) | 2 | 2
CC(C)CN(CC(=O)Nc1nc(CC(=O)N2CCc3ccccc3C2)cs1)C(=O)c1ccc(Cl)cc1 | 9 | 11
CCCN(C(=O)C(c1ccccc1)c1ccccc1)C(CC)c1nc2ccccc2c(=O)n1-c1ccc(OC)cc1 (stereo not given) | 17 | 24
Cc1ccc(N2CN(C(=O)CNCC(C)C)CC2=O)cc1 | 14 | 13
CCCc1nn(-c2ccc(OC)cc2)c(CC)c1C(=O)NCC1CCCO1 (stereo not given) | -21 | -16
CCc1ccc(C(=O)COC(=O)c2ccc3c(c2)NC(=O)CO3)cc1 | 4 | 1
CO/N=C(/C(=O)N[C@@H]1C[C@@H]2C[C@H]([C@H]1C)C2(C)C)c1csc(NC=O)n1 | -3 | -8
CC(CCc1ccccc1)NC(=O)CC(c1cccc(C(F)(F)F)c1)c1cn(C)c2ccccc12 (stereo not given) | -5 | 3

Of the compounds above, six have four or more nitrogen atoms.
SMILES | NPYLR7 ag | NPYLR7 ag max-min
Cc1cccc(NC(=O)CSc2nc3nc(C)cc(C)c3c(=O)[nH]2)c1 | -6 | -8
O=C(c1ccc(-c2ccc[nH]2)nc1)N1CCC(Oc2cccnc2)CC1 | -8 | -10
CC=CCn1c(=O)c2c(nc3n2CC(C)=NN3CCOCC)n(C)c1=O | 7 | 17
COc1cccc(C(C2Sc3ncnn3C2=O)N2CCCCC2)c1 (stereo not given) | 2 | 2
CC(C)CN(CC(=O)Nc1nc(CC(=O)N2CCc3ccccc3C2)cs1)C(=O)c1ccc(Cl)cc1 | 9 | 11
CO/N=C(/C(=O)N[C@@H]1C[C@@H]2C[C@H]([C@H]1C)C2(C)C)c1csc(NC=O)n1 | -3 | -8

Further results
SMILES | NPYLR7 ag | NPYLR7 ag max-min
O=C(c1cnc(-c2ccncc2)nc1)N1CCCC2(CCNCC2)CC1 | 11 | 8
COc1ccc2c(c1)C1(SCCN1C(=O)Nc1ccc(C)c(C)c1)C(=O)N2Cc1ccc(F)c(F)c1 (stereo not given) | 12 | 16
CCN(CC)CCn1c(C)c(C)n2c3c(=O)n(CCc4ccccc4)c(=O)n(C)c3nc12 | 2 | 8
CC(C)CN1CCC(NCc2ccc(F)c(-c3cccs3)c2)CC1 | 1 | -5
COc1cc(C(=O)N(C)c2cnn(C)c2)cc(OC)c1C | 23 | 23
CCOC(=O)N1CCC(NCc2cccnc2N2CCCC(O)C2)CC1 (stereo not given) | 15 | 4
Cc1cnc(C(=O)N2CCC3(CCCN(CC4CCC4)C3=O)C2)cn1 (stereo not given) | 2 | 0
COc1cc(-c2nc3ccccn3c2NC2CCCCC2)ccc1OC(=O)c1ccc2c(c1)OCO2 | 6&-5 | 4&-7
Cc1cccc(Cn2cccc2C2=NC(C)(C)CO2)c1 | 8 | 0
CCCCNC(=O)c1cc(-c2ccc(Cl)cc2)n(-c2ccc(F)cc2)c1C | -1 | 2
CCn1nccc1C(=O)N(C)Cc1nnc(-c2ccccc2)o1 | -5 | -9
O=C(NCc1ccnc(-n2ccnc2)c1)C1CCN1Cc1ccccc1 (stereo not given) | 0 | -3
COCCN(Cc1ccc(OC)c(OS(=O)(=O)c2ccc(OC)cc2)c1)C(=O)NC(C)(C)C | 21 | 25
COCCNC(=S)NN=C(C)c1ccc(Cl)s1 | -10 | -19
COC(=O)C1=C(OC)C(=O)OC12C=CC(=O)C=C2 | 4 | 2
CC(=O)N1CCc2c(nc(C)nc2NCCCSc2nnc(C)s2)C1 | 2 | -1
Nc1nc(C2CC2)c(Cc2ccc(F)cc2)s1 | 1 | -2
Cc1cc(CNC(=O)c2cnn(-c3ncc4c(n3)-c3ccccc3CC4)c2C)on1 | 27 | 11
O=C(c1cc(F)c(F)c(F)c1)N1CCc2c(sc3[nH]c(=O)n(-c4ccccc4C(F)(F)F)c(=O)c23)C1 | 7 | 1
CCC(C)CN(CC(=O)N(Cc1ccccc1)Cc1cccs1)C(=O)/C=C/c1ccc([N+](=O)[O-])cc1 (stereo not given) | 19 | 21
O=C(NC1CC(=O)N(CC(F)(F)F)C1)C1CC2CCC1C2 (stereo not given) | -3 | -5
CC(=NNS(=O)(=O)c1ccc(Br)cc1)c1ccc2c(c1)OCO2 | -4 | -12
CC(c1ccncc1)N1CCC(N)CC1 (stereo not given) | 26 | 25
COc1ccc(NC(=O)CCC2CCCN(C/C=C/c3ccco3)C2)cc1Cl (stereo not given) | 16 | 4
C=CCn1c(NC)nc2c1c(=O)[nH]c(=O)n2C | -1 | -3
COc1ccc(-c2nc(CN(Cc3ccccn3)CC3CCCO3)c(C)o2)c2ccccc12 (stereo not given) | 8 | 2
O=C1C2ON(c3ccccc3)C(c3cc(Br)ccc3O)C2C(=O)N1c1ccccc1 (stereo not given) | 1 | -1
O=C(N=Nc1c(O)n(CN2CCCC2)c2ccccc12)c1ccncc1 | 16 | 8
CCCc1nc(NCCc2ncc[nH]2)c2cnn(C)c2n1 | 15 | -2
CN(Cc1ccc(F)cc1)Cc1nc(Cc2ccccc2Cl)no1 | 4 | 0

Entries above that have a CF3 group, in the order listed:
SMILES | NPYLR7 ag | NPYLR7 ag max-min
CC(CCc1ccccc1)NC(=O)CC(c1cccc(C(F)(F)F)c1)c1cn(C)c2ccccc12 (stereo not given) | -5 | 3
O=C(c1cc(F)c(F)c(F)c1)N1CCc2c(sc3[nH]c(=O)n(-c4ccccc4C(F)(F)F)c(=O)c23)C1 | 7 | 1
O=C(NC1CC(=O)N(CC(F)(F)F)C1)C1CC2CCC1C2 (stereo not given) | -3 | -5

Remaining list, next part.
SMILES | NPYLR7 ag | NPYLR7 ag max-min
CCN(C(=O)c1ccccc1N1CCC(NC(=O)COc2ccccc2)CC1)C1CCCCC1 | 14 | 7
O=C(CSc1nnc(-c2ccco2)n1-c1ccc(F)cc1)c1ccc(Cl)cc1 | 40 | 30
CCCC(=O)Oc1ccc2c(=O)c(-c3ccccc3OC)coc2c1 | 1 | -5
O=c1/c(=C/c2cccc([N+](=O)[O-])c2)sc2nc3cc(Br)cnc3n12 | -9 | -19
COc1ccc(-c2cc3c(n(C)c2=O)CCN(C(=O)CCc2c(C)noc2C)C3)c2ccc(C)nc12 | 11 | 11
NC(=O)CSc1nnc2ccc(-c3ccc(Cl)cc3)nn12 | -13 | -7
CCS(=O)(=O)c1ccc2oc([C@H]3CCN(Cc4ccc(C(=O)O)cc4)C3)nc2c1 | -7 | -15
COc1cccc(OC)c1OCCNCC1CSc2ccccc2O1 (stereo not given) | 6 | -3
CCCCC(N=C1NS(=O)(=O)c2ccccc21)C(=O)NC1CCCC1 (stereo not given) | 2 | 0
CCN(CC)C(=O)[C@@H]1C[C@H](N)CN1C(=O)c1cnc2c(c1)ncn2C | 4 | 2
COc1ccc(C=C2N=C(c3ccc(Cl)cc3Cl)OC2=O)cc1OC | 17 | 8
O=C(Nc1ccc(N2CCC(Cc3ccccc3)CC2)c(C(=O)NCCN2CCOCC2)c1)c1ccc(Cl)cc1 | 11 | 20
CCCCN(CCCC)c1nc(OC)nc(-n2nnc(C(C)=O)c2C)n1 | 0 | -2
O=C(NCCCN1CCCc2ccccc21)c1cn(-c2ccccc2)nn1 | 3 | 2
CCCNC(=O)c1nnc2n1CCN(C(=O)c1cccs1)C2 | 10 | 6
Cc1cc(C)cc(NC(=O)CC(=O)N[C@@H]2C[C@H]3C(=O)N(C)CC(=O)N3C2)c1 | 6 | 4
CCc1nn2c(ncc3c(=O)n(-c4ccc(NC(C)=O)cc4)ccc32)c1-c1cccc(Cl)c1 | -4 | -3
O=C(/C=C/c1ccoc1)NCC1(c2ccc(Cl)cc2)CCOCC1 | 2 | 1
CCCC1CCC(c2ccc(-c3noc(-c4ccc(OCC)cc4)n3)cc2)CC1 (stereo not given) | 3 | 3
CCCOCCNC(=O)c1ccc(-c2cc(-c3cccc(OC)c3)n[nH]2)cc1 | 1 | -2
COc1ccc(-c2nc(-c3nonc3N)no2)cc1OC | -1 | -6
CC(CNC(=O)C1COc2ccccc2C1)N1CCN(c2ccccc2)CC1 (stereo not given) | -4 | -3
Cc1ccc(-n2ncc3c(=O)n(NC(=O)CC4CCCCC4)cnc32)cc1C | 9 | 6
O=C(N/N=C\c1ccc(Br)s1)c1ccc(CSc2ncccn2)cc1 | 12 | 16
O=C(NCC1CCCN(C(=O)CC2CCCCC2)C1)c1ccc(F)cc1 (stereo not given) | 3 | -1
O=C(C(=O)N(CCN1CCCCC1)CC1CCCN(C2CCCC2)C1)c1ccccc1 (stereo not given) | -2 | -4
NS(=O)(=O)c1ccc2c(c1)CCN2Cc1ccc(Cl)c(Cl)c1 | -1 | -1
CCc1ccc(C(=O)Cn2nc(-c3ccco3)c3sc(N4CCOCC4)nc3c2=O)cc1 | 0 | -6
COc1ccccc1S(=O)(=O)N[C@@H]1C[C@@H](CO)N(C)C1 | 5 | 3
Cc1c(C(=O)NCCCN2CCCCC2C)cc(-c2ccccc2)n1-c1ccccc1 (stereo not given) | -4 | -3

Reprinted from the results shown, 2 compounds:
SMILES | NPYLR7 ag | NPYLR7 ag max-min
COc1cc(C(=O)N(C)c2cnn(C)c2)cc(OC)c1C | 23 | 23
CCOC(=O)N1CCC(NCc2cccnc2N2CCCC(O)C2)CC1 (stereo not given) | 15 | 4

Other results.
SMILES | NPYLR7 ag | NPYLR7 ag max-min
Cn1cc(OCc2ccc(F)cc2)c(=O)cc1C(=O)NCCc1ccc(S(N)(=O)=O)cc1 | 2 | 2
CCc1nc2c(OCc3ccc4c(c3)OCO4)cccn2c1N(C)C(=O)c1cccc(OC)c1 | 9 | -1
CC(Sc1nc2ccccc2nc1Cl)C(=O)O (stereo not given) | 2 | 5
C=CCn1c(=O)c2c(nc3n2CC(C)CN3c2ccc(Br)cc2)n(C)c1=O (stereo not given) | 0 | -2
O=C1CCCC2=Nc3[nH]c(=O)[nH]c(=O)c3C(c3ccc4c(c3)OCO4)C12 (stereo not given) | 8 | 6
Cc1ccc(S(=O)(=O)N2CCCN(CC(=O)NCc3ccccc3)CC2)cc1 | -5 | -6
Cc1cc(C)n(-c2ccc(NC(=O)C3CCN(C(=O)C4=NN(C)C(=O)CC4)CC3)cc2)n1 | 2 | -1
C=C(NN=c1scc(C)n1Cc1ccco1)c1cccs1 | -2 | -2
CCCc1cc(=O)n(CC(=O)NCc2ccccc2)c(-n2nc(C)cc2C)n1 | -3 | -1
O=C(O)CC1(O)CC(=O)N(c2ccccc2)C1=O (stereo not given) | 9 | 8
Cc1nn(-c2cccc(F)c2)c(N2CCN(C(C)C)CC2)c1CN(C(=O)c1ccc(F)cc1)C(C)C | 4 | 9
CCN(CC)C(=O)Oc1ccc2c(ccn2Cc2cc(OC)cc(OC)c2)c1-c1cc(C)cc(C)c1 | 34 | 39
CNC(=O)c1nn(CN(C)Cc2ccc(F)cc2)c(=O)c2ccccc12 | -1 | 1
O=C(c1cc2cc(Br)ccc2[nH]1)N1CCCC1c1ccccc1 (stereo not given) | 4 | 4
Cc1ccc(NC(=O)C(C)C)c(C(=O)NC2CCN(Cc3cccnc3)CC2)c1 | 1 | 2
COCCn1c(SCc2ccccc2Cl)nc2c([nH]c3ccccc32)c1=O | -2 | -2
CC(=O)N1CCC(C(=O)Nc2nc(-c3ccc4c(c3)OCO4)cs2)CC1 | 8 | 7
CSc1ccc(COc2coc(CN3CCCN(S(=O)(=O)c4c(F)c(Br)cc(F)c4Br)CC3)cc2=O)cc1 | 0 | -5
COc1cccc(-n2cc(CNC3CCN(C(=O)C(C)C)CC3)cn2)c1 | 2 | 1
Cc1ccc(C(C)C)cc1OCC(=O)NCC(=O)NC1CC1 | 1 | -2
CCOc1ccc(C(=O)N(C)C(C)c2ccco2)cc1 (stereo not given) | 13 | 11
CC1=C(C(=O)NCc2cccnc2N2CCCCCCC2)OCCO1 | 5 | 1
CC(OC(=O)c1nc(Cl)ccc1Cl)C(=O)Nc1cccc2ccccc12 (stereo not given) | 0 | 19
O=c1[nH]cnc2sc3c(c12)CCCC3 | -2 | -3
CCOC(=O)Cc1nnc(NC(=O)c2ccccc2C)s1 | -6 | -9
CCN1CC(C)C(NS(=O)(=O)c2cnc3onc(C)c3c2)C1 (stereo not given) | -1 | -1
COc1ccc(/C=C/c2nc3cc(-c4nc5ccccc5[nH]4)ccc3s2)cc1 | 3 | 4
CN(Cc1cnc2c(-c3ccccc3)cnn2c1)Cc1noc2c1CCCC2 | 29 | 19
CC(C)C(NCC(=O)Nc1ccc(-c2nnc3n2CCCCC3)cc1)c1ccc(F)cc1 (stereo not given) | -1 | -1

Only part of the results is shown; the hit share may differ from the screen's.
